GALR2 ag – GALR2 (human) receptor agonism; O43603; GALR2-expressing cells, agonist activation read-out; activation, %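 (tested at 5 µM)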; 140,000 tested, 0.48% active; AID 803;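 active means above mean plus 3 SD of all compounds, about 5% in these data, not always enough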;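 further: 0% = vehicle buffer wells and 100% = reference agonist at full effect; tested in CHO reporter cells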
PKD1 inh – inhibitors of human PKD1 kinase. PKD1 kinase fluorescence polarization assay. inhibition, %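 (about 10 µM by stock and volumes)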. 200,000 tested, 0.056% active. AID 797;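 active means inhibition of 50% or more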;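 further: controls were vehicle for no effect and a reference inhibitor for full effect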
Target sequence (Q15139 whole entry, looked up): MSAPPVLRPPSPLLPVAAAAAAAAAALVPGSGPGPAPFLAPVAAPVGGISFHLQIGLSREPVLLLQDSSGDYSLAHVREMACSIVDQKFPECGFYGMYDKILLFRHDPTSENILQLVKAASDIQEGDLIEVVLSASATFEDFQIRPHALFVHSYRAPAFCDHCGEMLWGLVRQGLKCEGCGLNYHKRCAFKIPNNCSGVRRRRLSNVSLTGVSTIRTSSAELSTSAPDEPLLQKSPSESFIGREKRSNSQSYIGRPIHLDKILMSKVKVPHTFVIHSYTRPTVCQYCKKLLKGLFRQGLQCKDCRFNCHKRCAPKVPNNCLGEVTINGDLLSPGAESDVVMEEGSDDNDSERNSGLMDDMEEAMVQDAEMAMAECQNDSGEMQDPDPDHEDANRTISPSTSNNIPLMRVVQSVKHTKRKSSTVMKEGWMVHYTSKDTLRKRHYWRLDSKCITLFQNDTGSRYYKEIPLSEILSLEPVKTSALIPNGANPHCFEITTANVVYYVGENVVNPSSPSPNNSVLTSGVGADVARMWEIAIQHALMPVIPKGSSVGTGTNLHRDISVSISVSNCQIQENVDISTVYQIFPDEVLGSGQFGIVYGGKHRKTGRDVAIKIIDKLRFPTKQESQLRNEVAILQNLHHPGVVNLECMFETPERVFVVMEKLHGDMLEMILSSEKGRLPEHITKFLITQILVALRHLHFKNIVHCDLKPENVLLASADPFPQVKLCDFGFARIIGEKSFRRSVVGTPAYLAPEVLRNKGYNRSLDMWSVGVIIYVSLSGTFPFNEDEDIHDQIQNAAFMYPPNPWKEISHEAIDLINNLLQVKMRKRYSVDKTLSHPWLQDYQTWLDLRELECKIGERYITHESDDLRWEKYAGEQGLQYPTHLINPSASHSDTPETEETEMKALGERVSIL
RGS16-Gao – RGS16-Galphao interaction regulator (human); bead-based flow cytometry RGS16-Galphao binding, fluorescence; actives lie on both sides; binding response (% of control), % at 10 µM; 220,000 tested, 0.38% active;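 active means below 25% or above 175%, edge rows of some plates excepted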;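 further: Galphao activated by GDP with aluminum fluoride before binding; 100% = wells without compound and 0% = beads without RGS; some results beyond the cut were filed as inactive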
HSV augment – HSV replication enhancement; HSV replication augmentation in cells, fold increase; maximum fold increase; 220,000 tested, 0.005% active; AID 1956;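 active means peak rise of 1.5-fold or more in the series; tested in PC3 cells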;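 further: first round at 10 µM; read as green reporter fluorescence; hits show the peak of a series up to 25 µM; 1 = signal of infected wells without compound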
Insulin prom inh – TRM-6 insulin promoter activity inhibition; AID 1273; inhibition, % at 2 µM; TRM-6 cells (human fetal islet line), insulin promoter-eGFP reporter, imaging; reporter expression induced with tamoxifen; 130,000 tested, 0.9% active;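 active means inhibition above the mean plus 3 SD, with well images judged a real hit on visual review, cut at about 60% in these data, passing the limit was not always enough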
Insulin prom inh cell count – further read-out of Insulin prom inh, marked with its call; normalized cell count, %; measured here: cell count, toxicity; reference of the scale not given here;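 cells exposed to compound for 48 h; stained nuclei by imaging scaled within each plate; lower means fewer cells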
HSV augment primary fold – also measured in HSV augment; calls as there; fold increase; compound at 10 µM; measured here: primary screen fold increase 10 uM; tested in PC3 cells;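 GFP signal in the first replicate; 1 = infected wells without compound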
Active calls of the source: *; i = inactive; . = not tested or not shown. Compounds were not picked by outcome; overall some 1.3% were active at least once.

nr	structure	GALR2 ag	PKD1 inh	RGS16-Gao	HSV augment	HSV augment primary fold	Insulin prom inh	Insulin prom inh cell count
1	CC(C)n1c(SCC(=O)NCc2ccco2)nc2c1c(=O)n(C)c(=O)n2C	-0.9	-3	103	i	1.3	.	.
2	Cn1c(CN2CCCCC2)nc2cc(NC(=O)c3cccs3)ccc21	0.5	-8	106	i	0.75	0	93
3	N#CCCN(Cc1ccccc1)C(=O)Nc1ccc(F)cc1	.	.	103	i	0.98	.	.
4	C/C(=N\OC(=O)c1cccc(C)c1)c1sc(-c2ccccc2)nc1C	-3.6	-4	104	i	0.77	-29	92
5	CC(C)C(=O)Nc1nnc(SCC(=O)Nc2ccc3c(c2)OCO3)s1	-1.6	-7	97	i	1.1	0	93
6	Cc1noc(C)c1C(=O)OCC(=O)NCCC1=CCCCC1	-0.6	0	99	i	0.91	.	.
7	COC(=O)C(Cc1ccccc1)NC(=S)NC(=O)c1ccccc1 (centres undefined)	.	-5	98	i	1.1	.	.
8	Cc1nc(SCc2ccccc2C)n[nH]1	1.1	-12	111	i	1	15	51
9	CN(C)n1cnc2ccsc2c1=O	.	-9	103	i	0.88	-43	71
10	O=C(CN1CCN(Cc2ccc(Cl)cc2)C1=O)NCCCN1CCOCC1	0.8	-4	13*	i	0.87	.	.
11	CN(C)/C(=N\OC(=O)c1ccccc1)c1nonc1N	0.0	-3	26	i	0.92	-103	112
12	COc1ccc(-n2ncc3c(N4CCCCC4)ncnc32)cc1	-1.1	-7	99	i	0.94	.	.
13	COC(=O)NCC(c1cccnc1)N1CCN(c2ccccc2OC)CC1 (centres undefined)	-2.6	-8	103	i	0.9	-79	108
14	COCCNC(=O)CCCn1c(=O)c2ccccc2n(CC(=O)NCCC2=CCCCC2)c1=O	-0.2	-4	104	i	0.92	.	.
15	COc1ccc(Cl)cc1S(=O)(=O)n1nnc2ccccc21	-1.2	-3	105	i	0.88	50	73
16	Cc1nc(C(=O)NCCC(C)C)sc1C1(C)CC(c2ccccc2)=NO1 (centres undefined)	.	.	103	i	0.93	.	.
17	O=C(CSC1=Nc2ccccc2C2=NC(Cc3c[nH]c4ccccc34)C(=O)N12)NC1CCCCC1 (centres undefined)	-2.4	-1	104	i	0.85	41	62
18	Cc1c(Cl)c(-c2n[nH]c(=S)n2-c2ccccc2)nn1C	-1.0	5	113	i	0.92	0	77
19	O=c1c2ccccc2nc2n1CCC2	-1.6	-9	104	i	0.81	23	118
20	O=C(c1ccco1)N(Cc1nc2ccccc2c(=O)[nH]1)C1CCCC1	-0.1	-7	72	i	0.98	-19	94

An excerpt from above in order of SMILES length, high to low:
nr	structure	GALR2 ag	PKD1 inh	RGS16-Gao	HSV augment	HSV augment primary fold	Insulin prom inh	Insulin prom inh cell count
17	O=C(CSC1=Nc2ccccc2C2=NC(Cc3c[nH]c4ccccc34)C(=O)N12)NC1CCCCC1 (centres undefined)	-2.4	-1	104	i	0.85	41	62
14	COCCNC(=O)CCCn1c(=O)c2ccccc2n(CC(=O)NCCC2=CCCCC2)c1=O	-0.2	-4	104	i	0.92	.	.
1	CC(C)n1c(SCC(=O)NCc2ccco2)nc2c1c(=O)n(C)c(=O)n2C	-0.9	-3	103	i	1.3	.	.
4	C/C(=N\OC(=O)c1cccc(C)c1)c1sc(-c2ccccc2)nc1C	-3.6	-4	104	i	0.77	-29	92
5	CC(C)C(=O)Nc1nnc(SCC(=O)Nc2ccc3c(c2)OCO3)s1	-1.6	-7	97	i	1.1	0	93
10	O=C(CN1CCN(Cc2ccc(Cl)cc2)C1=O)NCCCN1CCOCC1	0.8	-4	13*	i	0.87	.	.
2	Cn1c(CN2CCCCC2)nc2cc(NC(=O)c3cccs3)ccc21	0.5	-8	106	i	0.75	0	93
7	COC(=O)C(Cc1ccccc1)NC(=S)NC(=O)c1ccccc1 (centres undefined)	.	-5	98	i	1.1	.	.
15	COc1ccc(Cl)cc1S(=O)(=O)n1nnc2ccccc21	-1.2	-3	105	i	0.88	50	73
6	Cc1noc(C)c1C(=O)OCC(=O)NCCC1=CCCCC1	-0.6	0	99	i	0.91	.	.
3	N#CCCN(Cc1ccccc1)C(=O)Nc1ccc(F)cc1	.	.	103	i	0.98	.	.
8	Cc1nc(SCc2ccccc2C)n[nH]1	1.1	-12	111	i	1	15	51
19	O=c1c2ccccc2nc2n1CCC2	-1.6	-9	104	i	0.81	23	118
9	CN(C)n1cnc2ccsc2c1=O	.	-9	103	i	0.88	-43	71

(further entries)
nr	structure	GALR2 ag	PKD1 inh	RGS16-Gao	HSV augment	HSV augment primary fold	Insulin prom inh	Insulin prom inh cell count
21	COc1ccc(-c2c3c(cc(C)[n+]2[O-])oc2ccc(OC)cc23)cc1	-0.3	-6	120	i	0.93	-21	99
22	Cc1ccc(-c2nnc(-c3cccc(Br)c3)o2)cc1	-1.0	-2	84	i	1	.	.
23	Cc1nc2c(C(=O)NCc3ccco3)cnn2c(C)c1Cc1ccc(F)cc1Cl	-0.5	-7	100	i	0.86	8	84
24	O=C(NNc1cccc(Cl)n1)C(F)(F)F	.	2	98	i	1	.	.
25	O=C(CCS(=O)(=O)c1ccc(Cl)cc1)NCCc1c[nH]c2ccccc12	.	0	100	i	0.95	.	.
26	Cc1ccccc1CN(c1ccc(C(N)=O)cc1)S(C)(=O)=O	-0.9	6	111	i	0.99	0	104
27	Cc1nc(-c2cccc(S(=O)(=O)N3CCOCC3)c2)cs1	-3.2	-13	101	i	1	15	99
28	CCCN(CCC)CCCNC(=O)CNC(=O)c1nn(-c2ccc(OC)cc2)c(=O)c2ccccc12	.	8	100	i	1	.	.
29	O=C(NC(=S)Nc1ccc(Br)cn1)c1cncc(Br)c1	-0.5	0	102	i	0.82	.	.
30	O=c1c2sccc2n(Cc2cccc(F)c2)c(=O)n1-c1ccc(F)cc1	-0.1	10	104	i	0.81	-17	102
31	CC/S(CC1CC1(Cl)Cl)=N\S(=O)(=O)c1ccc(C)cc1 (centres undefined)	0.4	4	103	i	1	-22	76
32	O=C(Nc1cnn(Cc2ccc(Cl)cc2)c1)c1ccc([N+](=O)[O-])cc1	-2.0	-8	105	i	0.93	.	.
33	COc1ccc(OC)c(-n2nnnc2SCC(=O)Nc2nc(C)c(C)s2)c1	-0.8	-10	62	i	0.92	-14	69
34	Cc1ccc2nc(N/C(=N/S(=O)(=O)c3ccc(F)cc3F)c3ccccc3)sc2c1	.	9	101	i	1.1	.	.
35	Cc1ccc(-c2nnc3ccc(SCC(=O)N4CCc5ccccc54)nn23)cc1	0.3	0	100	i	0.96	.	.
36	COc1cccc(C(=O)N2CCC(O)(c3cccnc3)CC2)c1	.	8	115	i	1	.	.
37	CCCCCc1c(C)nc(N2CCc3ccccc3C2)[nH]c1=O	-3.6	-9	98	i	1.2	-72	99
38	Cc1cccc(N2CSC3=C(C#N)C(c4ccc(C)o4)CC(=O)N3C2)c1 (centres undefined)	-1.6	-7	73	i	0.71	44	187
39	O=C(Cn1nnc(-c2ccccc2)n1)OC1CCOC1=O (centres undefined)	-2.2	-5	100	i	0.92	-32	117
40	O=C(NNC1=NCCCCC1)c1cccc([N+](=O)[O-])c1	.	-1	103	i	0.99	.	.

Next part.
nr	structure	GALR2 ag	PKD1 inh	RGS16-Gao	HSV augment	HSV augment primary fold	Insulin prom inh	Insulin prom inh cell count
41	C#CCNC(=O)C1=C[C@@H](c2coc3ccccc3c2=O)[C@H](CCCO)[C@@H](OCC)O1	.	2	102	i	0.98	.	.
42	CCc1cc(C(=O)OC)c(NC(=O)CC2Nc3cc(C)c(C)cc3NC2=O)s1 (centres undefined)	0.1	-12	98	i	0.93	3	111
43	O=C(CSc1nc2ccccc2c(=O)n1-c1ccc(F)cc1)Nc1ccc(Cl)c(S(=O)(=O)N2CCOCC2)c1	-0.5	-8	109	i	0.92	33	77
44	COc1ccc2c(C)cc(SCC(=O)Nc3c(C)n(C)n(-c4ccccc4)c3=O)nc2c1	-2.3	-8	102	i	0.86	26	109
45	CN(C(=O)COC(=O)COc1ccccc1F)C1CCS(=O)(=O)C1 (centres undefined)	-0.6	-11	99	i	0.96	.	.
46	O=C1CCCc2ccccc2N1	.	-5	103	i	1.1	.	.
47	Nc1cc(=O)[nH]c(SCC(=O)Nc2cc([N+](=O)[O-])ccc2Cl)n1	.	-3	100	i	0.98	.	.
48	CCCC1(C(=O)OC)NC(c2ccc(OC)c(OC)c2)C2C(=O)N(c3ccc4c(c3)OCO4)C(=O)C21 (centres undefined)	-1.8	-7	102	i	0.89	0	93
49	O=C(/C=C/c1ccc([N+](=O)[O-])cc1)OCc1cnc(-c2ccccc2)o1	.	-2	105	i	0.94	0	112
50	O=C(/C=C/c1cccc([N+](=O)[O-])c1)N1CC[C@@]2(O)CCCC[C@H]2C1	.	.	100	i	1.3	.	.
51	O=C(COC(=O)CCSc1ccccc1)NCc1ccccc1Cl	-0.1	-3	96	i	1.3	.	.
52	O=C(NCc1ccccn1)Nc1cccc(NC(=O)NCc2ccccn2)c1	-3.3	-6	98	i	0.89	.	.
53	Cc1cccc2nc(CSc3nnc4ccccn34)cn12	-0.1	-5	101	i	0.82	-37	144
54	CC(NC(=O)C1CCC(=O)N1Cc1ccc(F)cc1)c1ccc2c(c1)OCCO2 (centres undefined)	-0.7	-15	103	i	0.97	.	.
55	COC(=O)c1cc(OC)c(OC)cc1NC(=S)N1CCCC1	.	0	105	i	1	.	.
56	COc1nc(OC)nc(N2CCC(C(=O)NCc3ccco3)CC2)n1	-0.6	-6	96	i	0.99	.	.
57	O=C(O)CCc1nc(-c2ccccc2Cl)no1	-1.0	-2	102	i	0.93	.	.
58	O=C(NCCc1cccs1)C1CC(c2c(Cl)cccc2Cl)=NO1 (centres undefined)	-2.5	-11	94	i	0.59	35	154
59	CN1CCN(c2ccc([N+](=O)[O-])cc2NC(=O)c2ccccc2Cl)CC1	-2.5	-3	100	i	1	17	59
60	COCC(=O)NNC(=O)c1ccc(OC)cc1	.	1	100	i	0.94	21	123

(further entries)
nr	structure	GALR2 ag	PKD1 inh	RGS16-Gao	HSV augment	HSV augment primary fold	Insulin prom inh	Insulin prom inh cell count
61	Cc1ccc(-c2nc3cc(NC(=O)C(C)C)ccc3o2)cc1	4.7	-5	112	i	0.99	46	13
62	O=C(Nc1ccccc1Cl)C1CC(=O)n2c(nc3ccccc32)N1 (centres undefined)	.	-6	100	i	1.1	.	.
63	COc1ccc(C2=NN(S(C)(=O)=O)C(c3cccs3)C2)cc1 (centres undefined)	.	1	109	i	1	.	.
64	CN(C)CCn1c(=O)n(-c2ccc(F)cc2)c(=O)c2c3c(sc21)CCCCC3	.	.	101	i	0.66	.	.
65	O=c1cc(COc2ncnc3c(Cl)cc(Cl)cc23)nc2sccn12	.	.	103	i	1.1	.	.
66	O=C(CN1CCOCC1)NCCC12CC3CC(CC(C3)C1)C2	-0.1	4	99	i	1.1	0	134
67	COc1ccc(N2CCN(C(=O)CN(Cc3ccccc3)S(C)(=O)=O)CC2)cc1	-1.4	-5	105	i	0.91	-26	115
68	Cc1cc(NC(=O)CCC(=O)N(c2ccccc2)C(C(=O)NC2CCCC2)c2ccccc2)no1 (centres undefined)	-2.9	-10	53	i	0.96	13	110
69	CCC1=C(OC(=O)N(CC)CC)N2C(=O)OC(=NCC(=O)OC)[C@]2(C)[C@H]2C1=CC[C@H]1C(=O)NC(=O)[C@H]12	.	.	101	i	0.99	.	.
70	COc1cccc(NC(=O)CCCn2c(=S)[nH]c3ccccc3c2=O)c1	-0.3	-3	119	i	0.85	42	60
